MrgX1 antagonist – human MrgX1 receptor antagonism, primary screen. B-score at 10 µM. Q96LB2. MRGX1-HEK293 calcium flux, Fluo-4, BAM8-22 antagonism; stronger effect = lower value. 310,000 tested, 1.3% active. AID 588676;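 active = calcium-response B-score plate-corrected more than 3 library SD below zero, starting fluorescence within 5 deviations, no agonist response on first addition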;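 also: peak minus trough fluorescence over baseline after final BAM8-22 challenge near maximal dose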
MrgX1 allo act – allosterically activates human MrgX1 receptor signaling. Q96LB2. MrgX1-HEK293, Fluo-4 calcium flux, FDSS; stronger effect = higher value. B-score at 10 µM. 310,000 tested, 0.63% active;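 active = plate-corrected calcium response at least 3 library SD above typical, normal starting fluorescence, not activating the receptor alone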;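 also: compound read alongside a low EC10 to EC30 dose of BAM8-22 agonist; peak minus trough fluorescence over baseline measured at the second addition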
RGS4 pot – potentiators or activators of RGS4 | HEK293 M3R/inducible RGS4, carbachol calcium flux Fluo4; stronger effect = lower value | B-score at 10 µM | 310,000 tested, 0.92% active;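 active = B-score of the integrated calcium signal more than 4 SD below the library mean, with starting fluorescence not abnormally high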;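 also: negative B-score means reduced calcium response which marks RGS4 activation or potentiation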
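Reagent: ECmax carbachol challenge; Test system: M3R-expressing HEK293 line, RGS4 induced by doxycycline; Schedule: overnight RGS4 induction, 30 min dye load 37 °C, 20 min compound RT; Detection: calcium dye Fluo4 fluorescence; Read-out: Agonist-evoked peak-minus-minimum fluorescence over baseline, integrated ratio, B score.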
RGS4 block – human RGS4 inhibition; 310,000 tested, 0.45% active; HEK293 M3R/RGS4 inducible, Fluo-4 calcium flux; stronger effect = higher value; triggered by carbachol at its EC20; AID 463165; B-score at 10 µM;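 active = B-score, a plate-corrected calcium signal, over three deviations above library mean, with baseline fluorescence within five deviations of library mean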;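 also: RGS4 expression induced by doxycycline in cells with stable M3 receptor; B-score is computed from the integrated fluorescence ratio over baseline after carbachol; higher B-score means a larger calcium signal and so more RGS4 inhibition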
SKKanGAS inh – SKKanGAS growth inhibition | S. pyogenes SKKanGAS, kanamycin growth, BacTiter-Glo, 6 h | inhibition, % at 7.5 µM | 300,000 tested, 1.3% active;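 active = mean replicate score, as percent of positive control median, at least 50; inconclusive = mean below 50 but one replicate at or above 50; inactive = mean and every replicate below 50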;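 also: strain carries kanamycin resistance gene driven by streptokinase promoter and grows in 40 µg/ml kanamycin; loss of luminescence reflects streptokinase promoter inhibition or plain growth inhibition; 0% = median of DMSO wells and 100% = positive control at its reference dose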
TRPC4 inh – blocks the mouse TRPC4 cation channel. HEK293 TRPC4beta/mu-opioid, DAMGO-evoked Fluo4 calcium flux; stronger effect = lower value. B-score at 10 µM. 300,000 tested, 0.39% active;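 active = B-score over 3 SD under the library average, no early fluorescence shift, positive overall ratio signal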
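test system = HEK293 cells with stable TRPC4beta plus mu-opioid receptor expression | detection = Fluo4 Ca2+ flux fluorescence | read-out = integrated fluorescence ratio relative to baseline, converted to per-well B score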
TRPC6 act – mouse TRPC6 channel activation | HEK293-TRPC6 membrane potential dye fluorescence; stronger effect = higher value | 310,000 tested, 0.13% active | B-score at 10 µM | Q61143 | AID 2550;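 active = B-score of the integrated fluorescence ratio above library mean plus 3 SD, and starting fluorescence ratio within library mean plus 5 SD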;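 also: higher score means more depolarization so channel activation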
Target sequence (Q61143 whole entry, looked up): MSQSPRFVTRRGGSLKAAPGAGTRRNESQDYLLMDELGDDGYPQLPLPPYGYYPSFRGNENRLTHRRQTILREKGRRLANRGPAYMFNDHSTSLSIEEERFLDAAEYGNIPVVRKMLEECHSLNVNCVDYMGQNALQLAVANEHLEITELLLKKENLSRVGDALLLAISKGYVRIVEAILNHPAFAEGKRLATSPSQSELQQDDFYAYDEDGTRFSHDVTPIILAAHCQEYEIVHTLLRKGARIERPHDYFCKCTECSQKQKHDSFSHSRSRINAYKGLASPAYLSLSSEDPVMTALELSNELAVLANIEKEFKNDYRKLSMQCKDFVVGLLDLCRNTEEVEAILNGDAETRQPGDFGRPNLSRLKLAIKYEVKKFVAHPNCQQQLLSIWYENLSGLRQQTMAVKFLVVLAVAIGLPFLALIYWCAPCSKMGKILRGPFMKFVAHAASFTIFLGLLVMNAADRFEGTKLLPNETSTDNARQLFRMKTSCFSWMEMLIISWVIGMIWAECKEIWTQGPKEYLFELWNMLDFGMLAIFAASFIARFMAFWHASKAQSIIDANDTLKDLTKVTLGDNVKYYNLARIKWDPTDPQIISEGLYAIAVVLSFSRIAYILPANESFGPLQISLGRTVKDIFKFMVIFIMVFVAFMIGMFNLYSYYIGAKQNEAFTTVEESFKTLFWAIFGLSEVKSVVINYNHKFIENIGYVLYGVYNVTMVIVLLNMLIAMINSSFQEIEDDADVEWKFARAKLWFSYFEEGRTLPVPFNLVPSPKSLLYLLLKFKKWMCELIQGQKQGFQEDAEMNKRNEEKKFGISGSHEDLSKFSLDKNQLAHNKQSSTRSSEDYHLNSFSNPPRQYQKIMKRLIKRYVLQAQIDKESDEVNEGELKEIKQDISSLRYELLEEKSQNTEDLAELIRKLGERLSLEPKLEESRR
MrgX1 ag – activates human MrgX1 receptor signaling; Q96LB2; MrgX1-HEK293 cells, Fluo-4 calcium fluorescence, agonist mode; stronger effect = higher value; B-score at 10 µM; 310,000 tested, 0.44% active;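 active = calcium response B-score plate-corrected fluorescence ratio at least 3 library SD, with starting fluorescence B-score inside 5 SD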
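Test system: HEK293 cells stably expressing human MrgX1 receptor; amount: 15,000 cells per well; doses: compound delivered in addition one of three; times: overnight plating before 1 h dye loading; detection: Fluo-4 NW calcium-flux fluorescence, kinetic read; read-out basis: B-scored fluorescence response ratio; controls: positive and negative controls per plate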
Platelet DG rel – modulates dense granule release in human platelets. human platelet-rich plasma, SFLLRN dense granule ATP release, luminescence. inhibition, %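 (compounds screened at 7.5 µM in platelet-rich plasma)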. 300,000 tested, 0.22% active. AID 1663;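 active = mean replicate score, as percent of positive control, at or above 50; inconclusive = mean below 50 but at least one replicate at or above 50; inactive = mean and every replicate below 50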
TRPC6 inh – mouse TRPC6 channel inhibition; HEK293-TRPC6, membrane potential dye, ACh-evoked depolarization; stronger effect = lower value; B-score at 10 µM; 310,000 tested, 1.1% active; AID 2553;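 active = B-score under library mean minus 3 SD, initial fluorescence not abnormally high, positive integrated signal ratio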;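 also: B-score derived from integrated fluorescence ratio over the kinetic read; more negative B-score means stronger inhibition of depolarization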
* = called active by the depositor; i = inactive; ? = inconclusive. This is a subset (hit frequency here may not be typical).

item	Molecule	MrgX1 antagonist	MrgX1 allo act	RGS4 pot	RGS4 block	SKKanGAS inh	TRPC4 inh	TRPC6 act	MrgX1 ag	Platelet DG rel	TRPC6 inh
1	CC(C)(C)NC(=O)CSc1nsc(SCC(=O)NC(C)(C)C)c1C#N	i	i	i	i	2.4	i	i	i	-1.2	i
2	Cc1ccc(C)c(OCCCC(C)(C)C(=O)O)c1	i	i	i	i	-1.8	i	i	i	1.1	i
3	CCOC(=O)c1cc2cc(OC)ccc2[nH]1	i	i	i	i	-7.1	i	i	i	0.4	i
4	O=S(=O)(O)c1ccc(N=Nc2ccccc2)cc1	i	i	i	i	2.3	i	i	i	16.1	i
5	CCOC(=O)C1/C(=N\O)CC(C)(O)C(C(=O)OCC)C1c1ccc(N(C)C)cc1 (stereo not drawn)	i	i	i	i	-0.6	i	i	i	-1.5	i
6	O=C(O)c1ccc(COc2c(F)c(F)c(F)c(F)c2F)o1	i	i	i	i	1.5	i	i	i	0.7	i
7	C[C@H]1C[C@H]2[C@@H]3CCC4=CC(=O)C=C[C@]4(C)[C@@]3(Cl)[C@@H](O)C[C@]2(C)[C@@]1(O)C(=O)CO	i	i	i	i	2.0	i	i	i	-0.6	i
8	CCOC(=O)COn1c(=O)c(-c2ccc(OC)c(OC)c2)[n+]([O-])c2ccccc21	i	i	i	i	6.1	i	i	i	0.7	i
9	COC(=O)C(N)Cc1ccc(O)cc1 (stereo not drawn)	i	i	i	i	1.1	i	i	i	3.2	i
10	CNS(=O)(=O)c1cccc2nsnc12	i	i	i	i	3.1	i	i	i	-0.7	i
11	Nc1nc(SCc2ccc([N+](=O)[O-])cc2)c2ncn(C3OC(CO)C(O)C3O)c2n1 (stereo not drawn)	i	i	i	i	-3.8	i	i	i	7.1	i
12	Nc1nc2n(n1)C(c1cccs1)CC(c1ccc(Br)cc1)N2 (stereo not drawn)	i	i	i	i	6.5	i	i	i	7.9	i
13	Cc1cccc(-c2nnc3n2N=C(c2ccccc2)CS3)c1	i	i	i	i	0.0	i	i	i	-7.9	i
14	COc1ccc(OC)c(NC(=O)CSc2nnc(-c3ccco3)n2-c2ccc(C(=O)O)cc2)c1	i	i	i	i	7.4	i	i	i	7.1	i
15	COc1cc(C(=O)OCCN2CCCCC2)ccc1O	i	i	i	i	-6.2	i	i	i	-2.6	i
16	O=C(CC(c1ccccc1)c1ccco1)N1CCOCC1 (stereo not drawn)	i	i	i	i	6.4	i	i	i	-4.1	i
17	CCOC(=O)[C@@H](CCc1ccccc1)N[C@H](C)C(=O)N1[C@H](C(=O)O)C[C@@H]2CCC[C@@H]21	i	i	i	i	-5.3	i	i	i	-1.4	i
18	Cc1c(Cl)cccc1Nc1ccccc1C(=O)O	i	i	i	i	18.8	i	i	i	7.4	i
19	COc1ccc(/C(O)=C2/C(=O)C(=O)N(c3ncccn3)C2c2ccc(OC)c(OC)c2)cc1 (stereo not drawn)	i	i	i	i	5.0	i	i	i	0.0	i
20	CCN(CC)c1nc(-c2cccc(OC)c2O)nc2ccccc12	i	i	i	i	10.2	i	i	i	-7.5	i
21	C=CCOC(=O)C1=C(C)NC(SCC(=O)N(CC)CC)=C(C#N)C1c1ccccc1 (stereo not drawn)	i	i	i	i	3.5	i	i	i	2.9	i
22	CC(C(=O)O)c1ccc(N2Cc3ccccc3C2=O)cc1 (stereo not drawn)	i	i	i	i	2.4	i	i	i	6.6	i
23	COC(=O)CC1=C(C(=O)OC)C(c2ccncc2)C(C#N)=C(N)O1 (stereo not drawn)	i	i	i	i	-2.4	i	i	i	-0.4	i
24	CC12CCC(=O)C=C1CCC1C2C(O)CC2(C)C1CCC2(O)C(=O)CO (stereo not drawn)	i	i	i	i	-0.8	i	i	i	1.5	i
25	CC1(C)Cc2c(oc3ncn4ncnc4c23)CO1	i	i	i	i	-4.2	i	i	i	8.4	i
26	Cc1ccc(S(=O)(=O)/C(C#N)=C/c2c(N3CCN(C)CC3)nc3ccccn3c2=O)cc1	i	i	i	i	-1.8	i	i	i	3.8	i
27	CNc1oc(-c2cccs2)nc1C#N	i	i	i	i	0.5	i	i	i	7.4	i
28	Cc1cc(-c2ccc(F)cc2)nc2cc(C(N)=O)nn12	i	i	i	i	-0.4	i	i	i	6.7	i
29	COc1ccc2c(c1)C1(C)CC(C)(C)N2C(=O)N1c1ccccc1 (stereo not drawn)	i	i	i	i	-5.4	i	i	i	-24.9	i
30	Cc1[nH]c(=O)c(C#N)cc1-c1ccncc1	i	i	i	i	4.8	i	i	i	?	i

Six compounds from above, ordered by the number in Platelet DG rel, smallest number first:
no.	SMILES	MrgX1 antagonist	RGS4 block	TRPC4 inh	TRPC6 act	MrgX1 ag	Platelet DG rel
1	CC(C)(C)NC(=O)CSc1nsc(SCC(=O)NC(C)(C)C)c1C#N	i	i	i	i	i	-1.2
10	CNS(=O)(=O)c1cccc2nsnc12	i	i	i	i	i	-0.7
7	C[C@H]1C[C@H]2[C@@H]3CCC4=CC(=O)C=C[C@]4(C)[C@@]3(Cl)[C@@H](O)C[C@]2(C)[C@@]1(O)C(=O)CO	i	i	i	i	i	-0.6
19	COc1ccc(/C(O)=C2/C(=O)C(=O)N(c3ncccn3)C2c2ccc(OC)c(OC)c2)cc1 (stereo not drawn)	i	i	i	i	i	0.0
22	CC(C(=O)O)c1ccc(N2Cc3ccccc3C2=O)cc1 (stereo not drawn)	i	i	i	i	i	6.6
25	CC1(C)Cc2c(oc3ncn4ncnc4c23)CO1	i	i	i	i	i	8.4

Next entries
item	Molecule	MrgX1 antagonist	MrgX1 allo act	RGS4 pot	RGS4 block	SKKanGAS inh	TRPC4 inh	TRPC6 act	MrgX1 ag	Platelet DG rel	TRPC6 inh
31	CCOc1cccc(-c2nnc3sc(-c4cc(OC)c(OC)c(OC)c4)nn23)c1	i	i	i	i	4.8	i	i	i	-1.8	i
32	CNC(=O)c1ncnnc1N(C)C(=O)NCc1ccccc1	i	i	i	i	8.5	i	i	i	5.1	i
33	Nc1nnnn1CC(=O)OCc1cccc(Br)c1	i	i	i	i	-3.1	i	i	i	-2.9	i
34	CC(=O)NCC(=O)OCN1C(=O)c2ccccc2C1=O	i	i	i	i	7.4	i	i	i	9.5	i
35	CC1CN(C2CCN(C(=O)c3ccccc3)CC2)CC(C)O1 (stereo not drawn)	i	i	i	i	-2.6	i	i	i	6.5	i
36	CC(C)(C)C1=Nn2c(nnc2-c2ccco2)SC1	i	i	i	i	-25.8	i	i	i	-3.0	i
37	O=C(NCc1ccco1)c1cnn2c1NC(c1ccccc1)CC2C(F)(F)F (stereo not drawn)	i	i	i	i	-1.2	i	i	i	-8.5	i
38	CC(C)C[C@H]1C(=O)N2CCC[C@H]2[C@]2(O)O[C@](NC(=O)[C@@H]3C=C4c5cccc6[nH]c(Br)c(c56)CC4N(C)C3)(C(C)C)C(=O)N12 (stereo partly drawn)	i	i	i	i	14.5	i	i	i	-0.1	i
39	O=c1[nH]c2ccccc2c2ccccc12	i	i	i	i	-4.7	i	i	i	1.1	i
40	Cn1cc(C(F)(F)F)nc1-c1ccc(OCC(O)CNCCOc2ccc(O)c(C(N)=O)c2)cc1 (stereo not drawn)	i	i	i	i	-4.0	i	i	i	1.1	i
41	CC(C)Cc1[nH]c(=O)c(C#N)c2c1COC(C)(C)C2	i	i	i	i	0.1	i	i	i	-1.8	i
42	OCCN1CCN(CC/C=C2/c3ccccc3Sc3ccc(C(F)(F)F)cc32)CC1	i	i	i	i	5.4	i	i	i	-1.5	i
43	Fc1ccccc1/C=N/n1cnnc1	i	i	i	i	4.7	i	i	i	1.1	i
44	O=C(c1ccc(-n2cnnn2)cc1)N1CCOCC1	i	i	i	i	2.4	i	i	i	-0.4	i
45	CSc1nc(C)cc(OCCNS(=O)(=O)c2cc(C)ccc2C)n1	i	i	i	i	4.2	i	i	i	-1.3	i
46	O=C(O)c1ccc(C(=O)Nc2cccc3ccccc23)c(C(=O)O)c1	i	i	i	i	4.9	i	i	i	2.6	i
47	c1ccc(-n2ncc3c(N4CCCC4)ncnc32)cc1	i	i	i	i	7.8	i	i	i	-7.3	i
48	CC12CCC(C(=O)NCCCN3CCOCC3)(OC1=O)C2(C)C (stereo not drawn)	i	i	i	i	3.7	i	i	i	-4.4	i
49	C[C@]12CC[C@@H]3c4ccc(O)cc4C(=O)C[C@H]3[C@@H]1CC[C@@H]2O	i	i	i	i	-3.8	i	i	i	-0.9	i
50	S=C(Nc1ccccc1)Nc1nccs1	i	i	i	i	35.5	i	i	i	7.0	i
51	CN1CCCC1c1cccnc1 (stereo not drawn)	i	i	i	i	-23.8	i	i	i	-0.9	i
52	CC1CN(c2oc(-c3cccs3)nc2C#N)CC(C)O1 (stereo not drawn)	i	i	i	i	4.2	i	i	i	-73.5	i
53	COc1cccc(N2CCN(c3ncnc4c3[nH]c3ccc(F)cc34)CC2C)c1 (stereo not drawn)	i	i	i	i	?	i	i	i	26.3	i
54	CC1CC(Nc2ccccc2)c2ccccc2N1C(=O)c1cccnc1 (stereo not drawn)	i	i	i	i	-3.3	i	i	i	5.9	i
55	CC(COc1ccccc1)N(CCCl)Cc1ccccc1 (stereo not drawn)	i	i	i	i	-1.0	i	i	i	-2.0	i
56	COC(=O)C1=C(C)NC(C)=C(C(=O)OCCN(C)Cc2ccccc2)C1c1cccc([N+](=O)[O-])c1 (stereo not drawn)	i	i	i	i	-0.7	i	i	i	-1.0	i

Quoted at random: 3 records from the list
item	Molecule	MrgX1 antagonist	MrgX1 allo act	RGS4 pot	RGS4 block	SKKanGAS inh	TRPC4 inh	TRPC6 act	MrgX1 ag	Platelet DG rel	TRPC6 inh
35	CC1CN(C2CCN(C(=O)c3ccccc3)CC2)CC(C)O1 (stereo not drawn)	i	i	i	i	-2.6	i	i	i	6.5	i
43	Fc1ccccc1/C=N/n1cnnc1	i	i	i	i	4.7	i	i	i	1.1	i
51	CN1CCCC1c1cccnc1 (stereo not drawn)	i	i	i	i	-23.8	i	i	i	-0.9	i
